NPYLR7 ag: mosquito NPYLR7 agonism | HEK293T NPYLR7/Galpha15, GCaMP6s calcium fluorescence | activation, % at 10 µM | 270,000 compounds, 0.15% hits; in the data active = activation above about 40%;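 note: 0% = vehicle and 100% = reference agonist at the receptor; some compounds past the cut are filed as inactive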
NPYLR7 ag max-min: also measured in NPYLR7 ag; calls as there; activation, %; measured here: Max-Min RFU normalised activation; some inactives read as strong as hits;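 span of the calcium signal over five minutes; 0% = vehicle and 100% = native peptide agonist; compound fluorescence can raise it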
* = called active by the depositor; & = joins results of further samples. An excerpt; rates above refer to the full screens.

Every second line gives: NPYLR7 ag, NPYLR7 ag max-min
- O=c1[nH]nc2nc(N3CCCCC3)nc(N3CCCCC3)n12
 : -3, -5
- Cc1cc(CN(C)C(=O)C2CCC(=O)N(CC3CCCCC3)C2)n[nH]1 (stereo unspecified)
 : 10, 6
- O=C(CC1=CCCCC1)N1CCC2(CCCN(CC3CC3)C2=O)C1 (stereo unspecified)
 : 26, 7
- COc1ccc(NC(=O)C2CC(=O)c3ccccc32)c(NC(=O)C(C)C)c1 (stereo unspecified)
 : -3, -3
- O=C(CCc1ccco1)NC1CC(=O)N(CCc2ccccc2)C1 (stereo unspecified)
 : 5, 2
- Cc1cc2c(cc1O)NC(=O)CC2C1CCNCC1 (stereo unspecified)
 : 13, 10
- CC(=O)c1cccc(-c2ccnc3c2CC(C(=O)NCC2CCOCC2)O3)c1 (stereo unspecified)
 : 0, 1
- CCOc1cccc2cc(C(=O)Oc3ccc(OC)cc3)c(=O)oc12
 : 5, 4
- Fc1cc(F)cc(COC2CCCNC2)c1 (stereo unspecified)
 : 5, 14
- O=c1c2nnn(Cc3ccc(F)cc3)c2ncn1Cc1ccc(Cl)cc1
 : 6, 10
- Cc1cc(F)ccc1Oc1cc(N2CCN(S(=O)(=O)c3ccc(Cl)cc3)C(C)C2)ncn1 (stereo unspecified)
 : 13, 15
- CN(C)CC1(O)CCN(C(=O)c2cccc3nccnc23)C1 (stereo unspecified)
 : 15, 10
- Cc1ccc(-c2cc(C(=O)Nc3ccccc3F)c3ccccc3n2)c(C)c1
 : -4, -10
- COCCN1CCN(c2nc(C(=O)Nc3ccc(NC(C)=O)cc3)cs2)C1=O
 : 1, -2
- COc1ccc(NS(=O)(=O)c2ccc(-c3ccccc3)cc2)c(C(=O)NCc2ccccc2)c1
 : 3, 2
- Cc1cc(C(=O)Cn2cnnc2C#N)c(C)n1CCC(C)C
 : 8, 3
- CC(NC(=O)CSc1n[nH]c(-c2cccs2)n1)c1ccccc1 (stereo unspecified)
 : -7, 11
- CCc1nc2ccc(C(=O)NCCN(C)C)cn2c1N(C)Cc1ccc(N(C)C)cc1
 : 8, -6
- CC(C)c1ccccc1N1C(=O)CSC1c1ccc(NS(=O)(=O)c2ccc(F)cc2)cc1 (stereo unspecified)
 : 5, 18
- CCOC(=O)c1c(NC(=O)C2CC2C)sc(C)c1C (stereo unspecified)
 : 2, 5
- CC1=CC(=NSc2ccc(Cl)cc2)C=C(C)C1=O
 : 17, 16
- CCCCC(=O)N1CCN(c2nccn2C)CC1
 : 3, 9
- O=C(C1CC1)N1CCC(NCc2ccc(-c3cccc(Br)c3)s2)CC1
 : -1, -5
- CCN(C(=O)c1nn(-c2ccccc2)cc1OC)c1nc(C)cs1
 : -2, 148
- Cn1ccnc1SCCn1ccnc1-c1ccccc1C(=O)O
 : 6, 1
- COc1ccc(N2C(=O)C(c3c(C)[nH]n(-c4ccccc4)c3=O)=C(N3CCOCC3)C2=O)cc1
 : 7&21, 10&16
- Cc1ncc(C[n+]2ccccc2)c(C)n1
 : -7, -12
- Cc1ccccc1-c1nc(OCC(C)C)nn1-c1ccc(N)cc1
 : -9, -19
- CCc1cc(N2CCN(c3ccccc3F)CC2)nc(SCc2cccc(C(=O)NCc3ccccn3)c2)n1
 : 11, -2
- CS(=O)(=O)Nc1cc(NC(=O)c2cc(-c3ccco3)on2)ccc1F
 : 5, 6
- C=c1ccccc1=C1C=NNC(=NCCc2nc(C)cc(C)n2)N1
 : 12&-1, 6&-4
- CCOC(=O)C1C(C)=NC2=C(C(=O)c3ccccc32)C1c1cccc([N+](=O)[O-])c1 (stereo unspecified)
 : -4, 0
- CC(C)Oc1ccc(C(O)=C2C(=O)C(=O)N(CCN3CCNCC3)C2c2cccc([N+](=O)[O-])c2)cc1 (stereo unspecified)
 : 2, 1
- CNC(=O)Cn1cnc2c(nnn2-c2cccc(C)c2)c1=O
 : 0, -6
- COc1ccc(C2c3sc(=O)[nH]c3SC3C(=O)NC(=O)C32)cc1 (stereo unspecified)
 : 6, 4
- Cc1ccc2oc(-c3ccc([N+](=O)[O-])cc3)cc(=O)c2c1
 : -4, -10
- Cc1ccc(CC2N=NC(=NNC(=O)c3ccccc3Cl)NC2=O)cc1 (stereo unspecified)
 : 13, 8
- COc1ccc(Cn2c(-c3snnc3-c3ccccc3)n[nH]c2=S)cc1
 : -10, -16
- Cc1ccc(NC(=O)c2ccc(C)c(S(=O)(=O)Nc3cccc(C(=O)O)c3)c2)cc1
 : -13, -19
- S=C(NC1CC1)N(Cc1ccco1)Cc1cccs1
 : 0, 7
- Cc1ccc(S(=O)(=O)N2CCN(c3nc(-c4ccc(N(C)C)cc4)nc4sc5c(c34)CCC(C)C5)CC2)cc1 (stereo unspecified)
 : 0, 2
- O=c1[nH]ncc(N2CCN(Cc3nc4scc(-c5cccs5)c4c(=O)[nH]3)CC2)c1Cl
 : -1, 2
- Cc1ccc(-n2ncc3c2CC(C)(C)CC3NC(=O)C2CCN(C(=O)N(C)C)CC2)cc1 (stereo unspecified)
 : 5, 2
- CC1=CC=CC2=NC(C(F)(F)F)(C(F)(F)F)N=C(c3ccccc3)N12
 : 5, 2
- COc1ccccc1C(NC(=O)C1CCN(CCOc2ccccc2)CC1)c1ccccn1 (stereo unspecified)
 : 7, 8

In the list so far, three contain an aryl thioether with sulfur outside any ring.
Every second line gives: NPYLR7 ag, NPYLR7 ag max-min
- CC(NC(=O)CSc1n[nH]c(-c2cccs2)n1)c1ccccc1 (stereo unspecified)
 : -7, 11
- Cn1ccnc1SCCn1ccnc1-c1ccccc1C(=O)O
 : 6, 1
- CCc1cc(N2CCN(c3ccccc3F)CC2)nc(SCc2cccc(C(=O)NCc3ccccn3)c2)n1
 : 11, -2

(listing goes on)
Every second line gives: NPYLR7 ag, NPYLR7 ag max-min
- CC1CCCN(S(=O)(=O)NCCc2ccc(F)cc2)C1 (stereo unspecified)
 : 11, 3
- Cc1[nH]c2c(C)cccc2c(=O)c1CC=C(Cl)Cl
 : -3, -6
- COc1ccc(CNC(=O)N(C)Cc2ccncc2)cc1
 : 10, 10
- CC(C(=O)Nc1ccc(S(N)(=O)=O)cc1)N(C)CCOc1ccccc1F (stereo unspecified)
 : 2, -1
- CCOc1ccc(Br)cc1S(=O)(=O)N(C)C
 : 20, 26
- CC1CC(OC(=O)c2cc3c(s2)CCCC3)C(=O)O1 (stereo unspecified)
 : -1, -1
- Cc1cc2cc(CNC(=O)C34CC5CC(CC(C5)C3)C4)ccc2n1C
 : 5, 1
- Cc1ccc2c(c1)c1c3n2CCN(CC#N)C3CCC1 (stereo unspecified)
 : 8, 6
- CCOC(=O)c1cc(-c2ccc(N3CCN(C(=O)Cc4ccccc4)CC3)cc2)n(-c2ccccc2Cl)n1
 : 33, 26
- O=C(c1cc(-c2ccccc2Cl)nc2ccccc12)N1CCCC1
 : 5, 5
- COc1cccn2c(N(C)C(=O)CCC3CCCC3)c(C)nc12
 : 2, -9
- COCCN(Cc1ccc(C)o1)Cc1ccc(C(O)(c2cccc(F)c2)c2cccc(F)c2)o1
 : -10, -5
- Cc1ccc(CN2CCNC(=O)C2CC(=O)Nc2cnc3n2CCCC3)cc1 (stereo unspecified)
 : 2, -1
- Cc1cn2c3c(=O)n(CCC(C)C)c(=O)n(C)c3nc2n1-c1ccccc1N
 : 2, 2
- Nc1nccnc1C(=O)N1CCN(CC(=O)Nc2ccc(OC(F)(F)F)cc2)CC1
 : 2, 1
- O=C(Nc1ccccc1)C1CCOC1=O (stereo unspecified)
 : -8, -11
- CC(C#N)(CCc1ccccc1)NC(=O)CS(=O)(=O)C1CCCC1 (stereo unspecified)
 : 16, 13
- Cc1cc(C2CCC2)nc(NCCN2CCCC2)n1
 : 20, 18
- Cc1ccc(S(=O)(=O)N2CCc3c(cnn3-c3ccc(Cl)cc3Cl)C2)cc1
 : 1, 20
- CC1(Cc2ccc(Cl)s2)C(=O)Nc2cc(C(F)(F)F)ccc21 (stereo unspecified)
 : 5, 5
- COCCN1CCCC[C@]2(C[C@H](C(=O)O)[C@H](c3ccccc3)N2C(=O)COc2ccccc2)C1=O
 : 5, 8
- Cc1cccc2oc(CNC(=O)c3cc(COc4ccccc4)[nH]n3)nc12
 : -2, -3
- Cc1cc(Nc2ccc3c(n2)C(=O)N([C@H](C)C(=O)NCC2CCOCC2)C3)n(C)n1
 : 4, -2
- COC(=O)C1=C(C)NC2=C(C(=O)CC(c3ccc(OC)cc3)C2)C1c1ccc(OCc2ccccc2)c(OC)c1 (stereo unspecified)
 : 14, 16
- Cc1ccc(S(=O)(=O)Nc2ccc(C)cc2Br)cc1
 : 0, 0
- N=C1C(c2nc3ccccc3[nH]2)C(=O)CN1C1CCCC1 (stereo unspecified)
 : -1, 0
- CN(c1ccccc1)c1nc(N2CCCCC2)c2cnn(C)c2n1
 : 3, 1
- Cc1nn(-c2ccccc2)c(C)c1C1C(=O)NCCN1C(=O)Nc1ccccc1F (stereo unspecified)
 : 0, -1
- CCOC(=O)C1(C)CCCCCN1C(=O)c1ccnc(Cl)c1 (stereo unspecified)
 : -2, -6
- CCOc1ccccc1NC(=O)N1CCC2(CC1)C(=O)N(CC(=O)Nc1ccc(C)c(C)c1)CN2c1ccccc1
 : 5, 12

Three entries from above, sorted by formula weight, low to high:
Every second line gives: NPYLR7 ag, NPYLR7 ag max-min
- CCOC(=O)C1(C)CCCCCN1C(=O)c1ccnc(Cl)c1 (stereo unspecified)
 : -2, -6
- Cc1ccc(S(=O)(=O)Nc2ccc(C)cc2Br)cc1
 : 0, 0
- Cc1nn(-c2ccccc2)c(C)c1C1C(=O)NCCN1C(=O)Nc1ccccc1F (stereo unspecified)
 : 0, -1

Next records
Every second line gives: NPYLR7 ag, NPYLR7 ag max-min
- c1ccc(-c2ncn(C3CCNC3)c2-c2cccn2-c2nccs2)cc1 (stereo unspecified)
 : 8, 0
- CCCCCCCOc1ccc(C(=O)N2CCc3c([nH]c4ccc(OC)cc34)C2COCc2ccccc2)cc1 (stereo unspecified)
 : 4, -6
- COC(=O)c1sccc1S(=O)(=O)N1CCCC(N2CCCC2=O)C1 (stereo unspecified)
 : 6, 3
- CC(CC(=O)Nc1cc2c(cc1Cl)OCCCO2)c1cccnc1 (stereo unspecified)
 : 6, 2
- O=C(O)C1Nc2c(Cl)cc(Cl)cc2C2C=CCC12 (stereo unspecified)
 : -8, -8
- O=C(NC1CCN(C(=O)C2CCCC2)C1)c1cccc2cc[nH]c12 (stereo unspecified)
 : -16, -16
- O=C(NCc1cccnc1)c1ccc(CSc2ncn[nH]2)o1
 : 1, -4
- CC1CCCCN1CCN(C)C(=O)/C=C/c1ccccc1 (stereo unspecified)
 : -5, -6
- O=C(NCc1cccnc1)C1CCCCC1C(=O)N1CCc2ccccc21 (stereo unspecified)
 : -7, -7
- O=C(CSc1nc2ccccc2n1Cc1ccccc1)N/N=C\c1ccncc1
 : -6, -9
- O=C(O)c1ccc2c(c1)n(C[C@@H](O)CO)c(=O)n2CCc1ccccc1
 : -2, -4
- CCS(=O)(=O)NC(=O)C1(C)CCN1C(=O)c1ccc(C(F)(F)F)nc1C (stereo unspecified)
 : -1, -2
- c1ccc(CN2CCN(c3nc(-c4cccnc4)nc4ccccc34)CC2)cc1
 : 10, 8
- CC(C)(C)SCCn1cc(C2CC=CCC2)nn1 (stereo unspecified)
 : 3, -1
- O=C(O)C1Sc2[nH]c(=O)sc2C2c3cc(Br)ccc3OC(=O)C12 (stereo unspecified)
 : 20, 13

The final two records of the part before lead into the next:
Every second line gives: NPYLR7 ag, NPYLR7 ag max-min
- CC(C)(C)SCCn1cc(C2CC=CCC2)nn1 (stereo unspecified)
 : 3, -1
- O=C(O)C1Sc2[nH]c(=O)sc2C2c3cc(Br)ccc3OC(=O)C12 (stereo unspecified)
 : 20, 13
- COc1ccc(NS(=O)(=O)c2ccc3[nH]cc(C(=O)O)c(=O)c3c2)cc1OC
 : -2, -4
- COc1ccc(CN(C)CC(=O)Nc2c(C)cccc2C(C)C)cc1
 : 4, 0
- O=C1CSC(c2ccccc2C(F)(F)F)N1c1ccccn1 (stereo unspecified)
 : -6, -9
- COc1ccc(CN(CCc2c[nH]c3ccccc23)C(=O)CN(C(=O)/C=C/c2ccccc2)C(C)C)cc1
 : -12, -11
- Cc1nc(C)c(-c2ccc(SCC(=O)Nc3ccc(C)c(Cl)c3)nn2)s1
 : 0, -12
- COc1ccc(NC(=O)c2nn(C)cc2[N+](=O)[O-])cc1
 : -3, -7
- Cc1cc(-c2nnc(NC(=O)Cc3ccccc3)o2)n(C)n1
 : -3, -4
- Cc1cccc(OCCn2cnc3cc(C)c(C)cc32)c1
 : 23, 17
- CCc1csc(CNC(=O)c2ccc(N3CC(n4cccn4)C3)nc2)n1
 : -5, -11
- O=C(O)C(Br)CC12CC3CC(CC(C3)C1)C2 (stereo unspecified)
 : 10, 5
- CC1c2cccn2CCN1Cc1csc(Nc2ccccc2)n1 (stereo unspecified)
 : 0, 9
- CCn1c(C2CCN(Cc3ccnc(C(C)C)n3)CC2)n[nH]c1=O
 : 11, -2
- Cc1ccc(C=C(C#N)c2nc(C3CC3)cs2)o1
 : -1, -3
- COc1ccc(C(=O)NCC2(N)CCCCCC2)c(OC)n1
 : 15, 8
- CC(=O)c1cccc(NC(=O)Cn2c3ccc(F)cc3c3ncn(Cc4ccccc4)c(=O)c32)c1
 : -1, -2
- CCn1cnc(S(=O)(=O)NCCC(C)C)c1
 : 8, 5
- Cc1cnn(C(C)C(=O)N2CCc3[nH]nc(-c4ccc(F)c(F)c4)c3C2)c1 (stereo unspecified)
 : 0, 1
- CCOc1cc(-n2ncc(C(C)=O)c2C)nc(-c2ccccc2)n1
 : 9, 4

One compound at a time (already shown). Screens in order: NPYLR7 ag, NPYLR7 ag max-min
`COc1ccccc1C(NC(=O)C1CCN(CCOc2ccccc2)CC1)c1ccccn1` (stereo unspecified) is entered as 7, 8
`O=C1CSC(c2ccccc2C(F)(F)F)N1c1ccccn1` (stereo unspecified) is entered as -6, -9
`CCCCCCCOc1ccc(C(=O)N2CCc3c([nH]c4ccc(OC)cc34)C2COCc2ccccc2)cc1` (stereo unspecified) is entered as 4, -6

Screening data (PubChem)
